gsp ag: activates gsp, the McCune-Albright syndrome mutation; Potency, µM (top dose mostly 76.9 µM), without a hit: top-dose activation (cAMP increase), actives largely listed as activators; gsp mutant cells, cAMP HTRF, 30 min; control for the full effect not named in the record; hit rate 0.13% among 340,000; active = well fitted activation curve with a large enough effect; inconclusive = small, poorly fitted or top-dose-only effect, or another doubt; inactive = no such curve, though single readings can be large or run the other way; cell line not stated here;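 also: phosphodiesterase inhibitor Ro 20-1724 added with compounds to block cAMP breakdown; potency is read from the fitted curve at half-maximal effect; nearly all actives have a fitted effect of over 60% in size; about a fifth of the inactives were tested at one dose only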
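Cells stably selected in G418 were plated at 2000/well, grown 16-24 hr, then given compounds in DMSO with the PDE inhibitor […] (300 uM solution added) for 30 min at 37C; cAMP was read by HTRF.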
ClpP mod: qHTS Assay for Activators of ClpP. ATP-dependent Clp protease proteolytic subunit (Bacillus subtilis (strain 168)), P80244. Potency, µM (titrated, usually from 57.5 µM), inactives show top-dose activity change, negative = active. AID 651965, 2013. purified B. subtilis ClpP, FRET peptide cleavage, 20 min. hit rate 1.9% among 340,000; active = well fitted falling curve with a large enough effect; inconclusive = small, poorly fitted or top-dose-only effect; inactive = no such curve, though single readings can be large or run the other way; also: potency is read from the fitted curve at half-maximal effect; the source files actives as falling curves though it sought activators and does not explain the sign; nearly all actives have a fitted effect of over 65% in size; many hits overshoot -100%
Target sequence (P80244 whole entry, looked up): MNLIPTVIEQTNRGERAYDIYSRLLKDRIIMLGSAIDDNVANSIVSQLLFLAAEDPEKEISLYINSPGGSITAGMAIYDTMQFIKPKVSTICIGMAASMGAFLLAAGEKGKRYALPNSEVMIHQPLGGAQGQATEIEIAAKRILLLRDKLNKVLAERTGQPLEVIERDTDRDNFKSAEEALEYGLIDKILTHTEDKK
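Buffer: 100 mM Tris/HCl pH8, 100 mM KCl, 0.05% low protease BSA, 2.5% glycerol, 0.01% Tween-20. ClpP 10 microg/mL final; 20 min RT; delta FRET normalized to ADEP and DMSO controls.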
gsp antag: antagonists of gsp mutant (McCune-Albright syndrome); gsp-mutant cells, cAMP HTRF, 30 min; control for the full effect not named in the record; Potency, µM (top dose mostly 76.9 µM), for the others: top-dose activity change, negative = inhibition, most hits filed as inhibitors; hit rate 0.4% among 340,000; AID 624288; active = falling curve of any shape with a large fitted effect; inconclusive = falling curve, mostly with a smaller effect; inactive = flat or rising curve; cell line not stated here;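 also: intracellular cAMP measured with PDE inhibitor Ro 20-1724 present during compound exposure; potency is read from the fitted curve at half-maximal effect; % is scaled to controls: 0 for no effect and ±100 for the full control effect; nearly all actives have a fitted effect of over 65% in size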
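Measurement of cellular cAMP by homogeneous time-resolved fluorescence following a 30 min compound exposure at 37C. The PDE inhibitor […] was present throughout; the assay buffer was DPBS with 0.05% BSA and 0.005% Tween 20.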
Menin MLL FP FL: menin-MLL binding inhibition, fluorescein peptide | FP activity change, % at 61.4 µM | AID 1766 | 290,000 tested, under 10 active | Fluorescence polarization, fluorescein-MLL peptide displacement from menin; inconclusive = falling polarisation curve, or a change in total fluorescence; inactive = total fluorescence flat and polarisation flat or rising; no compound was filed as active; the % refers to the polarisation; negative = inhibition;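 also: % of control where 0% means no effect; inhibitors lower the polarisation; unlabelled MLL peptide was the positive control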
CtBP-E1A blk: CtBP/E1A binding inhibition. activity change, % (concentration not given with the values). hit rate 0.49% among 340,000. AlphaScreen GST-E1A/His-CtBP binding, 1536-well; hits give low values; control for the full effect not named in the record; in the data active means activity change below about -65%; inconclusive means about -30% to -65%; inactive means above about -30%; also: % is scaled to controls: 0 for no effect and ±100 for the full control effect
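In 5 uL wells, 23 nL compound meets equimolar GST-E1A and His-CtBP (5X stock 125 nM each) for 2 h, 37 °C. Beads (5X, 50 ug/mL) then 1 h, 37 °C, dark.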
TRPV1 potentiator: enhances activation of the human vanilloid receptor TRPV1 | TRPV1-expressing cells, Fluo-8 calcium influx, capsaicin EC20 potentiation; host cell line not named in the record; control for the full effect not named in the record | potentiation, % at 8.33 µM | hit rate 0.02% among 320,000 | AID 540277; active means potentiation above 80%; inconclusive means 30% to 80%; inactive means below 30%; also: 0% is about no effect
Target sequence (Q8NER1 whole entry, looked up): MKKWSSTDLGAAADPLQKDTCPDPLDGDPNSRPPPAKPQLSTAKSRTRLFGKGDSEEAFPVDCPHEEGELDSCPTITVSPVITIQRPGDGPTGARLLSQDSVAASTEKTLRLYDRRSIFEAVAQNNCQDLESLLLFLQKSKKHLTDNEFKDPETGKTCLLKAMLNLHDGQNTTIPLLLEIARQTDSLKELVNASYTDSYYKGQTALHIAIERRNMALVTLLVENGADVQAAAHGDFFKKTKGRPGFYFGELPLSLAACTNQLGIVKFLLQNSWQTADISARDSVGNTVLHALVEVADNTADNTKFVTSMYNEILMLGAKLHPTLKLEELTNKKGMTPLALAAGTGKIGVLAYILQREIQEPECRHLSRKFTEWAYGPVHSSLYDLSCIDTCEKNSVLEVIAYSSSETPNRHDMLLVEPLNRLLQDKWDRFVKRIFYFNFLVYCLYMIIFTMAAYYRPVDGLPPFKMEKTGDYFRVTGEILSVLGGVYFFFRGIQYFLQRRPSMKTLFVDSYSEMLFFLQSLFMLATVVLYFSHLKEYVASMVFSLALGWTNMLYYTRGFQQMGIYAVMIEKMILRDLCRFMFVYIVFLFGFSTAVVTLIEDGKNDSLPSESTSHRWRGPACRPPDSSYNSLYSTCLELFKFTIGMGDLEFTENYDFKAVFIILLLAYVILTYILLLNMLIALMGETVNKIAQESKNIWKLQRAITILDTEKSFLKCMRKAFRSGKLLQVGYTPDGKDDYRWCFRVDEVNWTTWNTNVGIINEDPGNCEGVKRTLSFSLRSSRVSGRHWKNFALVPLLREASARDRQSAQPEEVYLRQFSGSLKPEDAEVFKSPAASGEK
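TRPV1-expressing cells were cultured overnight at 35.5C and loaded with Fluo-8 calcium dye for 40 to 90 min at room temperature. After a 10 s baseline, compound was added and calcium influx was read kinetically for 3 min (ex 480/em 520 nm).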
Sfp inh: blocks B. subtilis Sfp PPTase activity; Biochemical Sfp PPTase activity, qHTS; hit rate 3.5% among 310,000; Q9F4F7; Potency, µM, inactives show max response, negative = inhibition, most hits filed as inhibitors; active = well fitted inhibition curve with a large enough effect; inconclusive = small, poorly fitted or top-dose-only effect, or another doubt; inactive = no such curve, though single readings can be large or run the other way;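 also: the enzyme is Sfp with the accession as filed and its product quenches rhodamine fluorescence; potency is read from the fitted curve at half-maximal effect; 0% = enzyme reaction without inhibitor and -100% = no enzyme wells; top concentration of the series not given in the record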
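Reaction rates are the 30-min fluorescence difference (ex 525, em 598 nm) in wells containing 15 nM Sfp, 5 uM rhodamine-CoA and 12.5 uM BHQ-2-YbbR at pH 7.6 with 10 mM MgCl2.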
The depositor's hits bear a star; & = joins results of further samples; [ ] = another dose, or the depositor's remark. Only part of the results is shown; the hit share may differ from the screen's.

O=S(=O)(O)C(=Cc1ccccc1)c1ccccc1 (tested in a mixture with another compound) was read as gsp ag -40%[inhibitor], ClpP mod -1.3%, gsp antag 3% and CtBP-E1A blk 1.
For O=C(Cn1nc(Cc2cccnc2)c2ccccc2c1=O)N1CCC2(CC1)OCCO2 the results were gsp ag -29%, ClpP mod -3.3%, gsp antag -2%, Menin MLL FP FL 4.7, CtBP-E1A blk 1, TRPV1 potentiator inconclusive and Sfp inh 21%.
`O=C(CN1CC(c2ccccc2)CC1=O)Nc1ccccc1` (stereo unspecified) gave gsp ag -14%, ClpP mod -0.2%, gsp antag -6%, Menin MLL FP FL 2.2, CtBP-E1A blk 3, TRPV1 potentiator 29 and Sfp inh 4%.
For CC1(C)CC(=O)C(C=NCCN2CCN(C(=O)Cc3ccc(F)cc3)CC2)=C(O)C1 the results were gsp ag 1%, ClpP mod -0.2%, gsp antag -6%, Menin MLL FP FL 2.0, CtBP-E1A blk 7, TRPV1 potentiator 10 and Sfp inh -14%.
O=C(/C=C/c1ccccc1)c1c(O)n(CCc2ccccc2)c(=O)[nH]c1=O was read as gsp ag -25%, ClpP mod -5.4%, gsp antag -2%, Menin MLL FP FL 14, CtBP-E1A blk -3, TRPV1 potentiator 12 and Sfp inh 8%.
For COC(=O)C1=C(c2ccc(C(C)=O)cc2)C[C@@H]2CC[C@H]1N2C the results were gsp ag inconclusive, ClpP mod 0.0%, gsp antag 8%, CtBP-E1A blk 6 and TRPV1 potentiator 6.
For C[n+]1ccc(-c2cc[n+](C)cc2)cc1 the results were ClpP mod 1.3%, gsp antag 7% and CtBP-E1A blk 4.
`O=c1[nH]c(O)c(C=Nc2ccccc2Oc2ccccc2)c(=O)[nH]1` gave gsp ag -6%[15.4 µM], gsp antag 1%, Menin MLL FP FL 25, CtBP-E1A blk -3 and Sfp inh -6%.
`CCN1C(=O)C(=Cc2c(C)n(CC(=O)NCC3CCCO3)c3ccccc23)C(=O)N(CC)C1=S` (stereo unspecified) gave gsp ag inconclusive, ClpP mod 0.9%, gsp antag -14%, CtBP-E1A blk -13, TRPV1 potentiator -7 and Sfp inh inconclusive.
Cc1ccc[n+](CC(O)Cn2c3ccccc3c3ccccc32)c1 (stereo unspecified) was read as gsp ag 1%, ClpP mod -29%, gsp antag 10%, Menin MLL FP FL -0.4, CtBP-E1A blk 33, TRPV1 potentiator 2 and Sfp inh -16%.
Screening COC(=O)C1=C(c2ccc(F)cc2F)C[C@@H]2CC[C@H]1N2C(=O)NCCO returned gsp ag -26%, ClpP mod 0.7%, gsp antag 10%, CtBP-E1A blk 4 and TRPV1 potentiator 17.
Screening O=c1[nH]c(=O)n(-c2ccccc2)c(O)c1C=NC12CN3CN(CN(C3)C1)C2 returned Menin MLL FP FL 0.5, TRPV1 potentiator 2 and Sfp inh -28%.
For C=CCN1C(=O)CSc2ccc(C(=O)N3CCC4(CC3)OCCO4)cc21 the results were gsp ag -12%, ClpP mod -1.9%, gsp antag -5%, Menin MLL FP FL 3.1, CtBP-E1A blk 10, TRPV1 potentiator 6 and Sfp inh 6%.
`O=C1c2ccccc2C(=O)N1Cc1nc2ccccc2c(=O)n1-c1ccc(Br)cn1` gave gsp ag -5%, ClpP mod -0.7%, gsp antag -2%, Menin MLL FP FL -1.8, CtBP-E1A blk 0, TRPV1 potentiator 1 and Sfp inh -4%.
COc1ccc(Cn2c(N)c(C(=O)NCc3ccco3)c3nc4ccccc4nc32)cc1 was read as gsp ag inconclusive, ClpP mod 32µM*, gsp antag -1%, Menin MLL FP FL inconclusive, CtBP-E1A blk 16, TRPV1 potentiator 9 and Sfp inh 45µM*.
Screening c1ccc(CCn2nnnc2CN2CCC(n3nnc4ccccc43)CC2)cc1 returned gsp ag -24%, ClpP mod -1.4%, gsp antag -19%, Menin MLL FP FL -0.2, CtBP-E1A blk -2, TRPV1 potentiator -8 and Sfp inh 8%.
Cc1cc(C)cc(N2C(=O)/C(=C\c3ccc(N4CCN(C)CC4)o3)C(=O)NC2=S)c1 was read as gsp ag -7%, gsp antag 0%, Menin MLL FP FL inconclusive, CtBP-E1A blk 3, TRPV1 potentiator 5 and Sfp inh -1%.
`O=S(=O)(NC1CCCCCCC1)OCC(Cl)(Cl)Cl` gave ClpP mod -0.6%, gsp antag 10%, Menin MLL FP FL 5.7, CtBP-E1A blk 2, TRPV1 potentiator -3 and Sfp inh 9%.
For C#CCN[C@H](C)Cc1ccccc1 the results were ClpP mod 1.1%, gsp antag 1%, Menin MLL FP FL -5.8, CtBP-E1A blk 1 and TRPV1 potentiator 2.
Screening CCC(Oc1cc(Cl)ccc1Cl)C(=O)N1CCC2(CC1)OCCO2 (stereo unspecified) returned gsp ag 11%, ClpP mod 0.9%, gsp antag -5%, CtBP-E1A blk -9, TRPV1 potentiator 6 and Sfp inh 4%.
Screening COC(=O)[C@@H]1C[C@H]1[C@@H](NP(=O)(c1ccccc1)c1ccccc1)c1ccccc1 returned ClpP mod -3.1%, gsp antag -4%, Menin MLL FP FL 1.2&-1.3, CtBP-E1A blk 0, TRPV1 potentiator 7 and Sfp inh 2%&9%.
`Cc1ccnc(-n2c(-c3ccco3)nc3ccccc3c2=O)c1` gave gsp ag -8%, ClpP mod -0.4%, gsp antag -4%, Menin MLL FP FL 2.0, CtBP-E1A blk 2, TRPV1 potentiator -10 and Sfp inh 3%.
`Cc1cccc(-n2c(O)c(C=NCc3cccnc3)c(=O)[nH]c2=O)c1C` gave gsp ag inconclusive, ClpP mod 0.8%, gsp antag 7%, Menin MLL FP FL 0.1, CtBP-E1A blk 0, TRPV1 potentiator 5 and Sfp inh 7%.
CCCCCSc1cc(OC)c(CCN)cc1OC was read as gsp ag 0%, ClpP mod -0.1%, gsp antag 11%, Menin MLL FP FL 2.6, CtBP-E1A blk -29, TRPV1 potentiator -3 and Sfp inh inconclusive.
For CCC(=NCCc1c[nH]c2ccccc12)c1c(O)n(C)c(=O)n(C)c1=O the results were gsp ag 13%, ClpP mod 2.1%, gsp antag inconclusive, Menin MLL FP FL 1.2, CtBP-E1A blk -20, TRPV1 potentiator 6 and Sfp inh 8%.
Screening C[C@H](CO)N1C[C@H](C)[C@H](CN(C)C(=O)Oc2cccc3ccccc23)OCc2cnnn2CCCC1=O returned gsp ag 19%, ClpP mod 0.9% and CtBP-E1A blk -5.
O=c1[nH]c(=O)n(CCc2ccc(F)cc2)c(O)c1/C=N/N1CCCCC1 was read as gsp ag 1%[15.4 µM], gsp antag -7%, Menin MLL FP FL 3.2, CtBP-E1A blk -1, TRPV1 potentiator -4 and Sfp inh -26%.
`COC(=O)C1=C(c2cc3ccccc3s2)C[C@@H]2CC[C@H]1N2C(=O)N1CCCCC1` gave ClpP mod -1.5%, gsp antag 15% and CtBP-E1A blk -7.
Screening Brc1ccc(Oc2ccc(Br)cc2Br)c(Br)c1 returned ClpP mod 0.0%, gsp antag -9%, CtBP-E1A blk 17 and TRPV1 potentiator -2.
c1ccc(CCNCc2cccnc2)cc1 was read as gsp ag -4%, ClpP mod 2.0%, gsp antag 6%, Menin MLL FP FL 0.2, CtBP-E1A blk 14, TRPV1 potentiator -14 and Sfp inh 8%.
Screening Cc1ccccc1NP(=O)(Oc1ccccc1F)Oc1ccccc1F returned gsp ag 33%, ClpP mod -2.8%, gsp antag 1%, Menin MLL FP FL 4.9, CtBP-E1A blk -4, TRPV1 potentiator 2 and Sfp inh 1%.
O=C([O-])c1ccc(-[n+]2c(-c3ccccc3)cc(-c3ccccc3)cc2-c2ccccc2)cc1 was read as gsp ag -9%, ClpP mod -5.5%, gsp antag 4%, CtBP-E1A blk 2 and TRPV1 potentiator -22.
`Cc1cccc(N2C(=O)NC(=O)/C(=C/c3cc4c(cc3[N+](=O)[O-])OCO4)C2=O)c1` gave gsp ag 0%[15.4 µM], gsp antag -2%, Menin MLL FP FL -1.2, CtBP-E1A blk 3, TRPV1 potentiator 7 and Sfp inh 35µM*.
Clc1ccc(CNCCc2ccc3c(c2)OCO3)cc1 was read as gsp ag -12%, gsp antag 16%, Menin MLL FP FL -0.9, CtBP-E1A blk -1, TRPV1 potentiator -3 and Sfp inh inconclusive.
For S=C1CN=C(c2ccccc2)c2cc(Cl)ccc2N1 the results were gsp ag 9%, ClpP mod -0.4%, gsp antag -11%, Menin MLL FP FL -5.1, CtBP-E1A blk -2, TRPV1 potentiator -15 and Sfp inh -5%.
CC(Cc1ccccc1)NC(=O)CN1CCCC1=O (stereo unspecified) was read as gsp ag -36%[inhibitor], gsp antag 10%, Menin MLL FP FL 12, CtBP-E1A blk -1, TRPV1 potentiator -1 and Sfp inh 4%.

Three entries out of the list, arranged by length of the SMILES, descending:
O=C(/C=C/c1ccccc1)c1c(O)n(CCc2ccccc2)c(=O)[nH]c1=O was read as gsp ag -25%, ClpP mod -5.4%, gsp antag -2%, Menin MLL FP FL 14, CtBP-E1A blk -3, TRPV1 potentiator 12 and Sfp inh 8%.
For O=C(Cn1nc(Cc2cccnc2)c2ccccc2c1=O)N1CCC2(CC1)OCCO2 the results were gsp ag -29%, ClpP mod -3.3%, gsp antag -2%, Menin MLL FP FL 4.7, CtBP-E1A blk 1, TRPV1 potentiator inconclusive and Sfp inh 21%.
Screening Brc1ccc(Oc2ccc(Br)cc2Br)c(Br)c1 returned ClpP mod 0.0%, gsp antag -9%, CtBP-E1A blk 17 and TRPV1 potentiator -2.

Going on with the list:
`NC(=O)c1ccc(N=Cc2c(O)n(Cc3ccco3)c(=O)[nH]c2=O)cc1` gave gsp ag 11%, ClpP mod -6.1%, gsp antag -1%, Menin MLL FP FL 20, CtBP-E1A blk -1, TRPV1 potentiator 9 and Sfp inh -9%.
`CC(C)CCn1c(N)c(C(=O)NCc2cccs2)c2nc3ccccc3nc21` gave gsp ag 9%, ClpP mod 14µM*, gsp antag 5%, Menin MLL FP FL -1.5, CtBP-E1A blk 9, TRPV1 potentiator 10 and Sfp inh 1%.
Screening O=c1[nH]c(=S)[nH]c(O)c1/C=C1/C=c2ccccc2=N1 returned gsp ag inconclusive, gsp antag 5%, Menin MLL FP FL 9.4, CtBP-E1A blk -4, TRPV1 potentiator 8 and Sfp inh -19%.
COc1ccc(CC(C)NCCc2ccc(OC)c(OC)c2)cc1 (stereo unspecified) was read as gsp ag 3%[15.4 µM], ClpP mod 0.7%, gsp antag 1%, Menin MLL FP FL -1.0, CtBP-E1A blk -1, TRPV1 potentiator -7 and Sfp inh 15%.
